Source: PubChem BioAssay
SmPrx2 inh = Schistosoma Mansoni Peroxiredoxins (Prx2); Schistosoma mansoni peroxiredoxin 2 (Prx2); Potency, µM; AID 448, 2006; S. mansoni Prx2 activity coupled to TGR/GSH (TGR is thioredoxin glutathione reductase), NADPH fluorescence loss, qHTS; some inactives read as strong as hits; 65,000 tested, 0.07% active; active means full or partial inhibition curve with a strong effect at the top dose; inconclusive means weaker partial or single-point curve; inactive means no accepted curve; note: series up to 57 µM; many of its hits are not listed in these tables
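Purified S. mansoni TGR and Prx2 in pH 7.4 phosphate buffer with EDTA and Tween-20 were preincubated with compounds for 15 min. Further NADPH/GSH was added, then a 2.5 mM H2O2 aliquot initiated turnover, followed kinetically by NADPH fluorescence.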
LT uptake inh = qHTS Assay for Anthrax Lethal Toxin Internalization | AID 912, 2007 | 70,000 tested, 0.67% active | Cells, anthrax lethal toxin internalization, FRET ratio (460/530) | Potency, µM (highest dose often 40 µM), for inactives: at the highest dose activity change, negative = inhibition, most hits filed as inhibitors; active = well fitted falling ratio curve with the 530 nm signal flat; inconclusive = other ratio curves, or a change in one channel alone; inactive = flat curves in the ratio and both channels; the % refers to the ratio; note: % is set by controls: 0 for no effect and ±100 for the full control effect; nearly all actives have a fitted effect of over 50% in size; tested in ME-180 cells; beta-lactamase reporter
Active calls of the source: *; ? = inconclusive; . = no result given; & = joins results of further samples; [ ] = remark or other dose. Potency is the fitted concentration of half-maximal effect.

Each structure is followed by: SmPrx2 inh	LT uptake inh
Cc1ccc(-c2cc(C(F)(F)F)n3ncc(C(=O)N4CCN(C)CC4)c3n2)cc1
    .	-7%
O=C1NC(c2ccco2)Nc2ccccc21 (stereo not given)
    >57	-1%
O=C(Cn1nnc(-c2ccc3c(c2)OCO3)n1)NCc1ccco1
    >57	-2%
CCN(CC)CCN1C(=O)C(O)=C(C(C)=O)C1c1ccccc1 (stereo not given)
    >57	.
CCOC(=O)c1c(NC(=O)c2csc(C)c2)sc(C(C)=O)c1C
    >57	4%
Cc1[nH]nc2c1C(C(C)C)C(C#N)=C(N)O2 (stereo not given)
    >57	?
COc1ccc(C2(O)CC3CCC(C2)N3c2nc(C)cc(C)c2C#N)cc1 (stereo not given)
    >57	-15%
Cc1cc2ncn(/N=C/c3cc(Br)ccc3O)c2cc1C
    >57	.
O=C(CCN1Cc2ccccc2C1)c1ccc2c(c1)OCCO2
    >57	?
CCCn1c(C)nc2c(NC(C)CN(C)C)nc(C)nc21 (stereo not given)
    .	-3%

(list continues)
Each structure is followed by: SmPrx2 inh	LT uptake inh
COc1cccc(N(C(=O)c2ccn[nH]2)C2(C(=O)Nc3c(C)cccc3C)CCCCC2)c1
    >57	-8%
COc1ccc(C2CC(c3ccc(Cl)cc3)n3nc(N)nc3N2)cc1 (stereo not given)
    >57	6%
O=C(O)c1cc2cc(F)ccc2[nH]1
    >57&>57	-12%&1%
Cc1ccc(-n2nc3c(c2NC(=O)C(C)(C)C)CSC3)c(C)c1
    >57	-9%
O=C(CCCOc1ccc(Cl)cc1Cl)N1CCN(c2ccccn2)CC1
    >57	-22%
CCCCCCCCCC[Si](C)(C)CCC(=O)N[C@@H](Cc1ccc(C)cc1)c1ccccc1
    >57	-3%
COc1ccccc1NS(=O)(=O)c1ccc(O)c(C(N)=O)c1
    >57	9%
COc1cc(OC)c2c(C)cc(=O)oc2c1
    >57	-3%
CC1CN(C(=O)CN2C(=O)NC3(CCCCCCC3)C2=O)CC(C)O1 (stereo not given)
    >57	9%
COc1ccc(/C=C/C(O)=C2/C(=O)N(C)C3(C)CC2c2ccccc2O3)cc1 (stereo not given)
    >57	2%

Additional compounds.
Each structure is followed by: SmPrx2 inh	LT uptake inh
COc1ccccc1-c1nc(C#N)c(N2CCN(c3cccc(Cl)c3)CC2)o1
    >57	1%
CC(=NCc1cccnc1)C1=C(O)c2ccccc2C1=O
    >57	-4%
O=C(CSc1ncn[nH]1)Nc1nnc(-c2ccccc2)s1
    .	14%
COC(=O)CC1Oc2ccccc2N(Cc2ccccc2)C1=O (stereo not given)
    >57	-19%
O=C(COC(=O)C1CC2C=CC1C2)NCc1ccco1 (stereo not given)
    >57	-11%
CN(C)P(=O)(C(Cl)=C(N1CCCCC1)N1CCCCC1)N(C)C
    >57	8%
O=C(O)CCC1COc2ccccc2O1 (stereo not given)
    >57	4%
O=S(=O)(c1ccc(OCC(O)CN2CCN(c3ccc(F)cc3)CC2)cc1)N1CCOCC1 (stereo not given)
    >57	?
Cn1cc(-c2nc3cnc(N4CCNCC4)nc3n(Cc3ccc(F)cc3)c2=O)c2ccccc21
    >11	?
CC(=O)O[C@H]1CC[C@@]2(C)C(=CC[C@@H]3[C@@H]4CC[C@H](c5cc(C(F)(F)F)n(C(C)=O)n5)[C@]4(C)CC[C@@H]32)C1
    >57	-8%[8 µM]

(further entries)
Each structure is followed by: SmPrx2 inh	LT uptake inh
COC(=O)[C@@H]1[C@H]2C[C@H]3c4[nH]c5cc(OC)ccc5c4CCN3C[C@@H]2C[C@@H](OC(=O)c2cc(OC)c(OC)c(OC)c2)[C@@H]1OC
    >57&>57	?
Cn1cccc1C(=O)N1CCC[C@@]2(CCN(Cc3nccs3)C2)C1
    >57	?
Cn1ccnc1SCC(=O)c1cc2ccccc2o1
    >57	-10%
Cc1nc2cc(N3CCCCC3)c(NC(=O)c3cccnc3)cc2c(=O)n1Cc1ccccc1
    >57	?
FC(F)(F)c1ccccc1-c1ccc2ncnc(NC3CCNCC3)c2c1
    >57	?
C=C1C[C@@]23C[C@]1(O)CC[C@@H]2[C@]12C=C[C@@H](O)[C@](C)(C(=O)O1)[C@H]2[C@H]3C(=O)O
    >57	2%[3.58 µM]
Cc1ccc2c(COn3nnc4ccc(S(=O)(=O)N(C)C)cc43)cc(=O)oc2c1C
    ?	-4%
O=C(Oc1ccnc2cc(Cl)ccc12)N1CCOCC1
    .	-11%
CO[C@@H]1C=CO[C@]2(C)Oc3c(C)c(O)c4c(O)c(c(C=NN5CCN(C)CC5)c(O)c4c3C2=O)NC(=O)C(C)=CC=C[C@H](C)[C@H](O)[C@H](C)[C@H](O)[C@H](C)[C@H](OC(C)=O)[C@H]1C
    >57	-1%[3.58 µM]
CCn1c(NCc2ccc(N(C)C)cc2)nc2ccccc21
    >57	-3%

Individual results from the results shown:
`Cc1nc2cc(N3CCCCC3)c(NC(=O)c3cccnc3)cc2c(=O)n1Cc1ccccc1` in SmPrx2 inh shows >57
`Cn1ccnc1SCC(=O)c1cc2ccccc2o1` in LT uptake inh shows -10%

New compounds follow.
Each structure is followed by: SmPrx2 inh	LT uptake inh
CCOc1c(Cl)cc(C(=O)NCCN2CCCCC2)cc1Cl
    >57	?
COc1ccc2c(C)cc(=O)oc2c1C
    >57	-5%
CCCCNC(=O)CC(NS(=O)(=O)c1ccc(C)cc1)c1ccco1 (stereo not given)
    >57	?
COc1ccc(CC(=O)NC2CCN(CC(=O)N3CCCc4ccccc43)CC2)cc1OC
    >57	6%
Cc1ccc(-c2noc(C3CCCN(C(=O)c4ccc(F)cc4F)C3)n2)cc1 (stereo not given)
    >57	?
Cc1c(S(=O)(=O)Nc2cc(Cl)ccc2Cl)c(=O)n(C)c(=O)n1C
    >57	1%
COC(=O)c1ccc(-c2ccc(C(=O)N3CCCN(C)CC3)cc2)cc1
    >57	?
COc1cc(C2Nc3cc(Cl)c(S(N)(=O)=O)cc3S(=O)(=O)N2)cc(OC)c1OC (stereo not given)
    >57	-5%
O=C(Cn1cccc1C(=O)c1ccccc1)NCc1cccnc1
    >57	?
Cc1cc(NS(=O)(=O)c2ccc(Cl)cc2)nn1CC(=O)NCc1ccco1
    >57	-10%

Another view of 4 compounds above.
> O=C1NC(c2ccco2)Nc2ccccc21 (stereo not given)
- SmPrx2 inh = >57
- LT uptake inh = -1%

> O=C(Cn1nnc(-c2ccc3c(c2)OCO3)n1)NCc1ccco1
- SmPrx2 inh = >57
- LT uptake inh = -2%

> CCN(CC)CCN1C(=O)C(O)=C(C(C)=O)C1c1ccccc1 (stereo not given)
- SmPrx2 inh = >57
- LT uptake inh = .

> CCOC(=O)c1c(NC(=O)c2csc(C)c2)sc(C(C)=O)c1C
- SmPrx2 inh = >57
- LT uptake inh = 4%

Next part:
Each structure is followed by: SmPrx2 inh	LT uptake inh
CCOCCc1nnc(NC(=O)c2cc(OC)c(OC)c(OC)c2)s1
    >57	5%
CC1CCCC(C)N1C(=O)Cn1c(=O)sc2ccccc21 (stereo not given)
    >57	5%
CCn1c(SC)nnc1-c1sc2cc(Cl)ccc2c1Cl
    >57	-26%
C=C(C)CN1C(=O)C(O)(CC(=O)c2ccc3c(c2)OCCO3)c2ccccc21 (stereo not given)
    >57	2%
O=C(CSc1nnc(-c2cccnc2)n1Cc1ccccc1)NCc1ccco1
    >57	-10%
CCOC(=O)c1ccc(N2C(=O)CC(N3CCC(C#N)(c4ccccc4)CC3)C2=O)cc1 (stereo not given)
    >57	-3%
O=C(CSc1nc2ccc([N+](=O)[O-])cc2s1)c1ccc2ccccc2c1
    >57	-3%[8 µM]
O=C(CN1C(=O)c2ccccc2C1=O)Nc1ccccc1F
    >57	-12%
O=C1c2ccccc2C(=O)N1c1ccc(S(=O)(=O)N2CCN(c3ccccc3)CC2)cc1
    >57	?
Cc1cccc2cc(COC(=O)c3cccnc3)c(=O)[nH]c12
    >57	16%

Additional entries:
Each structure is followed by: SmPrx2 inh	LT uptake inh
Cc1cccc2cc(C(c3nnnn3CC3CCCO3)N3CCCc4ccccc43)c(=O)[nH]c12 (stereo not given)
    >57	2%
CCOc1ccc(OCC)c(NC(=O)CSCC(=O)O)c1
    >57	6%
CCCn1c(CNC(=O)c2cccs2)nc2ccccc21
    >57	-2%
COC(=O)c1ccc(NC(=O)C2CCCN2S(=O)(=O)c2ccc(F)cc2)cc1 (stereo not given)
    >57	-2%
CCN1CCN(CCCNC(=O)C(NC(=O)C2CCC(C)CC2)C(C)C)CC1 (stereo not given)
    >57	6%
COCCN(C(=O)CCC(=O)Nc1cccnc1)C(C(=O)NC1CCCCC1)c1ccccc1 (stereo not given)
    >57	16%
Cc1cccc(OCCCC(=O)O)c1
    >57	0%
CCS(=O)(=O)N1CCC(C(=O)NCCc2ccc(C)cc2)CC1
    .	2%
CN1CCN(/C(=N\O)c2nonc2N)CC1
    >57	-1%
CCOC(=O)c1sc2nc(CC(=O)OC)nc(NCc3ccco3)c2c1C
    >57	-12%

(listing goes on)
Each structure is followed by: SmPrx2 inh	LT uptake inh
O=C(c1ccco1)N1CCC2(CC1)CCN(C(c1ccccc1)c1ccccc1)CC2
    >57	11%
O=C(NCc1ccncc1)c1cccc(Cn2cc(Br)cn2)c1
    >57	-6%
COC(=O)C1=C(C)NC2=C(C(=O)c3ccccc32)C1c1ccc(-c2ccc(C(=O)O)cc2)o1 (stereo not given)
    >57	-12%
CCCN(CCC)CCNC(=O)C1CCCN(S(=O)(=O)c2ccc3c(c2)oc(=O)n3C)C1 (stereo not given)
    >57	16%
Cc1cccc(OCc2n[nH]c(=S)o2)c1
    >57	?
Fc1ccc(CSc2nnc(-c3cccs3)o2)cc1
    >57	-12%
COc1ccc(C(=O)COC(=O)CSCc2c(C)noc2C)cc1OC
    >57	-6%
O=C(c1ccc(N2CCCC2=O)cc1)N1CCN(c2ccccc2)CC1
    >57	8%
CCCCn1c(=O)[nH]c(=O)c2c1nc(COC(=O)c1c(C)noc1C)n2CCC
    >57	-4%
COC(=O)c1ccc2c(c1)NC(=O)C(N1CCCC1)S2 (stereo not given)
    >57	6%

(list continues)
Each structure is followed by: SmPrx2 inh	LT uptake inh
COC(=O)N1CCC[C@@]2(CCN(C(=O)NC(C)C)C2)C1
    >57	?
CCC(=O)Nc1nonc1-c1nc2ccccc2n1N(C(=O)CC)C(=O)CC
    >57	10%
CCN(CC)CCOC(=O)c1cc2cc(COC)ccc2o1
    >57	5%
O=C(c1ccc(F)cc1)N1CCN(Cc2ccccc2Br)CC1
    >57	6%
O=C(NCCN1CCCC1)C1(S(=O)(=O)c2ccc(Cl)cc2)CC1
    >57	-1%
CC(C)n1nnnc1C(c1ccc(F)cc1)N1CCN(C2CCCC2)CC1 (stereo not given)
    >57	?
Cc1cc(C)nc(N2CCN(c3ncnc4c3cnn4Cc3ccc(Cl)cc3Cl)CC2)n1
    >57	20%
OC(COc1ccc2ccccc2c1)CN1CCOCC1 (stereo not given)
    >57	-6%
O=C(CSc1nnc(COc2ccccc2)o1)N1CCN(c2ccccc2)CC1
    >57	-25%
COCCN(CCOC)c1cc(C)c(C#N)c2nc3ccccc3n12
    >57	?

Next part:
Each structure is followed by: SmPrx2 inh	LT uptake inh
CCc1ccc(NC(=O)Cn2c(=O)n(CCCC(=O)NCc3ccco3)c(=O)c3ccccc32)cc1
    >57	8%
COc1ccc(C2C(C(=O)c3ccco3)=C(O)C(=O)N2CCc2ccccc2)cc1OC (stereo not given)
    >57	1%
COCc1ccccc1Cn1cnc2c1c(=O)n(C)c(=O)n2C
    >57	?
CCOc1cc2[nH]c(=O)n(CCCCCC(=O)NCc3ccc4c(c3)OCO4)c(=O)c2cc1OCC
    >57	8%
O=c1c2cc(Cl)ccc2[nH]c(=S)n1Cc1ccco1
    >57	-14%
COc1ccc(NC(=O)N2CC3(CCN(S(C)(=O)=O)CC3)C2)cc1
    >57	1%
O=C(NCc1ccco1)c1cccc(S(=O)(=O)N2CCCCC2)c1
    >57	23%
O=C(c1cccc(F)c1)N1CCC2(CCCN(c3cccc(-c4ccccc4)c3)C2)CC1
    >57	?
COc1ccc(OC)c(CNC(=O)CCc2nc(-c3cccs3)no2)c1
    >57	-4%
COC(=O)c1nn(-c2ccc(-c3ccccc3)cc2)cc1O
    .	-27%

Continued.
Each structure is followed by: SmPrx2 inh	LT uptake inh
Cc1cc(C)nc(SCc2nnc(SCC(=O)Nc3ncc(C)s3)n2Cc2ccco2)n1
    >57	?
COc1ccc(C(=O)OC(C)CN2CCOCC2)cc1OC (stereo not given)
    >57	4%
Cc1occc1-c1nnc(SCCCC(=O)c2ccc(F)cc2)n1C
    >57	?
Cc1cc(C)nc(N(C#N)CC(=O)c2ccccc2)n1
    >57	?
O=C(Nc1ccc2c(c1)OCO2)C1CCCCN1S(=O)(=O)c1ccc(F)cc1 (stereo not given)
    >57	?
COc1ccc(-c2onc(C)c2-c2ccc(C(=O)OC(C)C)o2)c(O)c1
    >57	-10%
C=C(C)CSc1nc2c(cc1C#N)CCC2
    .	-29%

Some of the compounds tested. The share of hits here may be higher or lower than overall.
